nsP2pro primary = Primary qHTS for inhibitors of NSP2Pro chikungunya virus (CHIKV) | Polyprotein P1234 (Chikungunya virus (strain S27-African prototype)), Q8JUX6 | AID 1964107, 2024 | hit rate 1.1% among 31,000 | Potency, µM (doses to about 24.9 µM), for the others: at the highest dose activity change, negative = inhibition, actives largely listed as inhibitors | FRET peptide cleavage, nsP2pro, fluorescence 1 h; active means well fitted inhibition curve with a large enough effect; inconclusive means small, poorly fitted or top-dose-only effect; inactive means no such curve, though single readings can be large or run the other way; further: nearly all actives have a fitted effect of over 60% in size; a reference inhibitor and vehicle were the controls
Target sequence (Q8JUX6 whole entry, looked up): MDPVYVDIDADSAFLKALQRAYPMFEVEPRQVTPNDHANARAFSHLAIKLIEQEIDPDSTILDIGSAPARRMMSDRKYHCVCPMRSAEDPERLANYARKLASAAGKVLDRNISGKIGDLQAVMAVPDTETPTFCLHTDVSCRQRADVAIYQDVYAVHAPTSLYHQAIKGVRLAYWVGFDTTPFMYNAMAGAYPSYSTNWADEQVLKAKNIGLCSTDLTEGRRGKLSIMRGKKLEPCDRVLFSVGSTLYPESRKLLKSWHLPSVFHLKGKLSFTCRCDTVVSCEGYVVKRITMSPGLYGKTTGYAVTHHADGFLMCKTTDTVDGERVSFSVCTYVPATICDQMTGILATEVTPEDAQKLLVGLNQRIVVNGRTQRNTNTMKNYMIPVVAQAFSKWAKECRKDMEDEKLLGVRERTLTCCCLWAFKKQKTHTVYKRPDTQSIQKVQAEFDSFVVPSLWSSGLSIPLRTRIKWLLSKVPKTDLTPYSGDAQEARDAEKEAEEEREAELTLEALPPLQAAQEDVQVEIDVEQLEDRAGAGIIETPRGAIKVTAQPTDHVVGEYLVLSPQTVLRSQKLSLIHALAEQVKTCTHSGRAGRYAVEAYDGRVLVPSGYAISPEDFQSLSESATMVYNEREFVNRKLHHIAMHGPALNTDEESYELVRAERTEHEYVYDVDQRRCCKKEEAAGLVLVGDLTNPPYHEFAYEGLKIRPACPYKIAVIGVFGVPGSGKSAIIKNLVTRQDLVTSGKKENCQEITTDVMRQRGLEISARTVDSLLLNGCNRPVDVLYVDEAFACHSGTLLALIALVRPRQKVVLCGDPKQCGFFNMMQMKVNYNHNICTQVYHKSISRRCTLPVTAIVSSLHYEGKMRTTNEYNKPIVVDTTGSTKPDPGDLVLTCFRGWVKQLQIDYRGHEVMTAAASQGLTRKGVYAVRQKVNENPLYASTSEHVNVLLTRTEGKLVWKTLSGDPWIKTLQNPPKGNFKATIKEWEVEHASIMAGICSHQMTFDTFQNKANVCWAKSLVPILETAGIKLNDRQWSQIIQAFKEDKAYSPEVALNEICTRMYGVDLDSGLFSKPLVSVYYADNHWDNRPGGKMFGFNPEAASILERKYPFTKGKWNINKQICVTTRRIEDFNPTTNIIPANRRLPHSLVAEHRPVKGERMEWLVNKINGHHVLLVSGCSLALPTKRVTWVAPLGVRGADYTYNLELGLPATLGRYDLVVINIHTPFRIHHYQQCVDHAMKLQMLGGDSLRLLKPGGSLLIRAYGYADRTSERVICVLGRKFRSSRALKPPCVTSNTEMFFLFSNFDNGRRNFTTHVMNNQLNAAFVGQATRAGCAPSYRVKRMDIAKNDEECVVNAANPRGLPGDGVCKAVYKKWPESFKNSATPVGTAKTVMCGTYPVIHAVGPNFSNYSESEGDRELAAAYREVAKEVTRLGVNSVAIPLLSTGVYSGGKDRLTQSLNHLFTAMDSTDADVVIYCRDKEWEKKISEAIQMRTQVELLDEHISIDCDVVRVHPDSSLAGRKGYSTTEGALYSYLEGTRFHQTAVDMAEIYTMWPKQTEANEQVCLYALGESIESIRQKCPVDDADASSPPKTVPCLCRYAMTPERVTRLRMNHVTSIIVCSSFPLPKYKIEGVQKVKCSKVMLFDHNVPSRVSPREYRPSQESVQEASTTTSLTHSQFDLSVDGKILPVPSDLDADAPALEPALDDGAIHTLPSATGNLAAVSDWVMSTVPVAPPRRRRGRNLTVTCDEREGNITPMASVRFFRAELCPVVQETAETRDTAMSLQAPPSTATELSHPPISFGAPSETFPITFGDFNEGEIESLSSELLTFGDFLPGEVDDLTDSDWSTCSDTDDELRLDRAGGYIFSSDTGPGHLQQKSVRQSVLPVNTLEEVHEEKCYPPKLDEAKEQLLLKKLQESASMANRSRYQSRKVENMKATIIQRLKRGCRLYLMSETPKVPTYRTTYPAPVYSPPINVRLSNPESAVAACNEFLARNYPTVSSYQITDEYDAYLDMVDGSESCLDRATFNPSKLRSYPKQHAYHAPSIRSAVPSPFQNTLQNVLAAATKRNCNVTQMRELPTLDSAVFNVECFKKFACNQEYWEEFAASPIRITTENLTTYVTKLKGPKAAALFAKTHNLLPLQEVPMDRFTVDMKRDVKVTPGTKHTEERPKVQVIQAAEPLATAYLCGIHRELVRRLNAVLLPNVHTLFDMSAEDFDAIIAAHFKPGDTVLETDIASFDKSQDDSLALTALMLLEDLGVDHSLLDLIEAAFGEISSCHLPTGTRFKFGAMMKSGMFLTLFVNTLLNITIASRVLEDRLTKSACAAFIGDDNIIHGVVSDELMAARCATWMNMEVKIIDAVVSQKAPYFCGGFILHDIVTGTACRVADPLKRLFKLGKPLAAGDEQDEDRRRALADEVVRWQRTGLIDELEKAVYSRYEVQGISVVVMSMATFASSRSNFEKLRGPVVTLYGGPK
* = called active by the depositor; i = inactive; u = inconclusive; & = joins results of further samples; [ ] = remark or other dose. On the % scale 0 is the no-effect control and ±100 the full control effect; potency means the concentration at half of the fitted maximal effect.

SMILES | nsP2pro primary
COc1cc(OC)c(N(C)C(=O)C2CCCN(c3ncnc4c3nc3n4CCCCC3)C2)cc1Cl (stereo not drawn) | -20%
COc1ccccc1CC(=O)N1CCC(n2nccc2NC(=O)c2ccccc2C)CC1 | i
CC(C)c1ccccc1-c1ncc(F)c(NCc2ccc(-c3cccnc3)s2)n1 | -6%
CCCCN(C)C(=O)C1CCC(Cn2c(=O)[nH]c3ccsc3c2=O)CC1 (stereo not drawn) | -15%
CC1(COc2ccccc2)COc2ccc(C(=O)N3CCN(c4ccccn4)CC3)cc2N1 (stereo not drawn) | i
CC(C)CN1C(=O)c2cccn2CC1CN (stereo not drawn) | 0%
COc1cc2c(cc1OC)N1C(=O)C[C@@]34C=CC[N@+]5([O-])CC[C@H]2[C@H](CC3)[C@@]145 | 0%
CCN(CC)c1ccc(NC(=O)C2CCN(S(=O)(=O)c3ccc4c(c3)oc(=O)n4C)CC2)c(C)c1 | -8%
COc1ccc(NC(=O)c2cc3c(=O)[nH]c4ccccc4c3n2C)cc1Cl | -17%
O=S(=O)(c1ccc(Br)cc1)c1nc(-c2cccs2)oc1SCc1ccc(F)cc1 | 46%[activator]
COc1cccc(NC(=O)c2cc(CN3CCOCC3)on2)c1 | 1%
C=CCc1c(C)nc2nc(SCC(=O)Nc3ccccc3CC)nn2c1C | -20%
COc1cccc(-c2noc(CN3CCC(c4nc(-c5cccn5C)no4)C3)n2)c1OC (stereo not drawn) | -13%
Nc1nc2c(ncn2[C@@H]2O[C@H](CO)[C@@H](O)[C@H]2O)c(=O)[nH]1 | -5%
CN(Cc1ccccc1)S(=O)(=O)c1ccc(-c2cnc(C3CC3)o2)cc1 | -16%
O=C(O)c1cccc(CC2CCN(C(=O)CCC(F)(F)F)C2)c1 (stereo not drawn) | 3%
CC(=O)Oc1c(-c2ccc(NC(=O)c3ccco3)cc2)c(-c2cccc(F)c2)nn1-c1ccc(C)cc1 | i
CC(C)(C)c1ccc(-c2csc(N3CCC(C(N)=O)CC3)n2)cc1 | i
O=C(NCC(c1cccnc1)N1CCOCC1)C(=O)Nc1cccc(Cl)c1 (stereo not drawn) | -14%
CC(C)CN(CC1CN(C(=O)c2ccccc2)CCO1)C(=O)c1cccc2ccccc12 (stereo not drawn) | i
CCNc1cccc(S(=O)(=O)N2CCCN(S(=O)(=O)c3ccc4c(c3)OCCO4)CC2)c1 | -1%
C[C@@H]1O[C@@H](O[C@@H]2CO[C@@H](O[C@H]3CC[C@@]4(C)C(CC[C@]5(C)C4CC=C4[C@@H]6CC(C)(C)CC[C@]6(C(=O)O[C@@H]6O[C@H](CO)[C@@H](O)[C@H](O)[C@H]6O)CC[C@]45C)[C@]3(C)CO)[C@H](O)[C@H]2O[C@@H]2O[C@H](CO)[C@@H](O)[C@H](O)[C@H]2O)[C@H](O)[C@H](O)[C@H]1O (stereo partly drawn) | 29%[5.1 µM]
CS(=O)(=O)N(C1CC1)C1CCOC2(CCN(C(=O)CCC3CCCC3)CC2)C1 (stereo not drawn) | -7%
CCNC(=O)c1ccc(-c2ccc3ncnc(NCC4CCCO4)c3c2)o1 (stereo not drawn) | i
CCCN1CCN(C(=O)Cc2cccn2-c2ccc(F)cc2)CC1 | -4%
CCc1nccc(-c2c(-c3ccccc3)ncn2CC(O)c2ccccc2)n1 (stereo not drawn) | 4%
Cc1cccc(NC(=O)CSc2cn(CC(=O)N3CCCC3)c3ccccc23)c1C | u
COc1ccc2c(CNCCc3cccs3)c(C(=O)O)n(Cc3ccccc3C)c2c1 | -13%
COc1ccccc1-c1nc(CNC(=O)Nc2ccccc2)c(C)o1 | -6%
O=C(OC[C@H]1O[C@H](O[C@]2(CO)O[C@H](CO)[C@@H](O)[C@@H]2O)[C@H](O)[C@@H](O)[C@@H]1O)c1ccccc1 | -1%[10 µM]
CC(C)OCc1cc(CN2CCN(c3cccc(C(F)(F)F)c3)CC2)c(O)c2ncccc12 | 57%[activator]
CC(C)CCCCC(=O)N[C@@H](CO)C(=O)N[C@@H](CC(C)C)C(=O)[C@@]1(CO)CO1 | -9%
CC(C)NC(=O)NC[C@H]1O[C@@H](CO)[C@@H](O)[C@H]1N(C)CCN(C)C | u
Cc1ccc(C(=O)N2CCc3nc(-c4cn[nH]c4)[nH]c3C2)cc1N1CCNC1=O | -1%
O=C(COc1ccccc1F)Nc1ccc2nc(SCC(=O)N3CCCC3)sc2c1 | -5%
Cc1ccc2nc3sc(C(=O)NCc4ccco4)cc3cc2c1 | u

15 of these compounds in a different format:
SMILES,nsP2pro primary
C[C@@H]1O[C@@H](O[C@@H]2CO[C@@H](O[C@H]3CC[C@@]4(C)C(CC[C@]5(C)C4CC=C4[C@@H]6CC(C)(C)CC[C@]6(C(=O)O[C@@H]6O[C@H](CO)[C@@H](O)[C@H](O)[C@H]6O)CC[C@]45C)[C@]3(C)CO)[C@H](O)[C@H]2O[C@@H]2O[C@H](CO)[C@@H](O)[C@H](O)[C@H]2O)[C@H](O)[C@H](O)[C@H]1O (stereo partly drawn),29%[5.1 µM]
CS(=O)(=O)N(C1CC1)C1CCOC2(CCN(C(=O)CCC3CCCC3)CC2)C1 (stereo not drawn),-7%
CCNC(=O)c1ccc(-c2ccc3ncnc(NCC4CCCO4)c3c2)o1 (stereo not drawn),i
CCCN1CCN(C(=O)Cc2cccn2-c2ccc(F)cc2)CC1,-4%
CCc1nccc(-c2c(-c3ccccc3)ncn2CC(O)c2ccccc2)n1 (stereo not drawn),4%
Cc1cccc(NC(=O)CSc2cn(CC(=O)N3CCCC3)c3ccccc23)c1C,u
COc1ccc2c(CNCCc3cccs3)c(C(=O)O)n(Cc3ccccc3C)c2c1,-13%
COc1ccccc1-c1nc(CNC(=O)Nc2ccccc2)c(C)o1,-6%
O=C(OC[C@H]1O[C@H](O[C@]2(CO)O[C@H](CO)[C@@H](O)[C@@H]2O)[C@H](O)[C@@H](O)[C@@H]1O)c1ccccc1,-1%[10 µM]
CC(C)OCc1cc(CN2CCN(c3cccc(C(F)(F)F)c3)CC2)c(O)c2ncccc12,57%[activator]
CC(C)CCCCC(=O)N[C@@H](CO)C(=O)N[C@@H](CC(C)C)C(=O)[C@@]1(CO)CO1,-9%
CC(C)NC(=O)NC[C@H]1O[C@@H](CO)[C@@H](O)[C@H]1N(C)CCN(C)C,u
Cc1ccc(C(=O)N2CCc3nc(-c4cn[nH]c4)[nH]c3C2)cc1N1CCNC1=O,-1%
O=C(COc1ccccc1F)Nc1ccc2nc(SCC(=O)N3CCCC3)sc2c1,-5%
Cc1ccc2nc3sc(C(=O)NCc4ccco4)cc3cc2c1,u

More results:
SMILES | nsP2pro primary
CN(C(=O)c1cccn1C)C1CCc2nn(C)c(=O)n2CC1 (stereo not drawn) | 4%
CCC(=O)N1CCc2cc(Br)cc(S(=O)(=O)CCC(=O)NCCc3ccc(C)cc3)c21 | -10%
COc1ccc(-c2ccc3nc(-c4cccc(F)c4)oc3c2)c(OC)c1OC | u
COC(=O)C1=CO[C@@H](O[C@@H]2O[C@H](CO)[C@@H](O)[C@H](O)[C@H]2O)[C@@H]2C(CO)=CC[C@]12O | -4%[10 µM]
Cc1nnc2n1CCC(NC(=O)CCCc1c[nH]c3ccccc13)CC2 (stereo not drawn) | -9%
CN(C)Cc1nnc(C2CC(NC(=O)Cc3c(F)cccc3Cl)C2)n1C (stereo not drawn) | -8%
OCC1(Cc2ccccc2)CCCN(Cc2cn[nH]c2-c2ccc(F)cc2)C1 (stereo not drawn) | -2%
CC(C)c1noc(CC2CCN(C(=O)c3cc4ccccc4[nH]3)CC2)n1 | 2%
Cc1cnc(C(=O)NC2C[C@H]3CC[C@@H](C2)N3S(=O)(=O)c2ccc(C)c(F)c2)cn1 (stereo partly drawn) | -1%
c1cnc2c(c1)NC1(CCCNC1)C(=NC1CCCC1)N2 (stereo not drawn) | u
COc1ccc(-c2c(C)c(C(=O)NN3CCCCC3)nn2-c2ccc(Cl)cc2Cl)cc1 | 7%
COC(=O)c1ccc(Cn2nnc3sc4c(c3c2=O)CCCC4)cc1 | -22%
Cc1cccc(C(=O)NCCc2nc3ccccc3n2Cc2ccc(Cl)cc2)c1 | 3%
C[C@]12CCC(=O)C=C1CC[C@@H]1[C@@H]2[C@@H](O)C[C@@]2(C)[C@H]1CC[C@]2(O)C(=O)COP(=O)(O)O | -5%[10 µM]
Cc1cccc(CNC(=O)Cn2c(-c3cccs3)cc3ccccc32)c1 | -17%
CC(C)[C@H](CO)Nc1nc(Nc2ccc(C(=O)O)c(Cl)c2)c2ncn(C(C)C)c2n1 | -21%[10 µM]
O=S(=O)(NCCCCCCNS(=O)(=O)c1c(F)cccc1F)c1ccc2c(c1)OCCO2 | 2%
COc1cccc(Cn2c(=O)n(CCc3ccccc3)c(=O)c3c2c2cc(OC)ccc2n3C)c1 | -14%
CCC(=O)NC(c1cccs1)c1ccc2cccnc2c1O (stereo not drawn) | i
CC(NC1CCC2(CCNCC2)CC1)c1nc(-c2ccccn2)no1 (stereo not drawn) | 4%
CCOc1ccc(NC(=O)CCc2c(C)nc3c(c(C)nn3-c3ccccc3)c2C)cc1 | -18%
COc1ccc(NC(=O)c2cc3c(=O)n(Cc4cccs4)ccc3nc2C)c(OC)c1 | -11%
Fc1cccc(Nc2ncc(-c3cncnc3)c3c2OCC3)c1 | u
NCCC[C@H](N)CC(=O)N[C@H]1CNC(=O)[C@H]([C@H]2C[C@H](O)N=C(N)N2)NC(=O)/C(=C/NC(N)=O)NC(=O)[C@H](CO)NC(=O)[C@H](CO)NC1=O | 7%
Cc1[nH]c(=O)[nH]c(=O)c1C1N2CC3(C(C)C)CN1CC(C(C)C)(C2)C3=O (stereo not drawn) | 2%
Cc1ccc(CS(=O)(=O)Cc2ccc(C(=O)NCCc3ccc(Cl)cc3)o2)cc1 | -15%
CC(C)=CCC[C@](C)(O[C@@H]1O[C@H](CO[C@@H]2O[C@H](CO)[C@@H](O)[C@H](O)[C@H]2O)[C@@H](O)[C@H](O)[C@H]1O)[C@H]1CC[C@]2(C)[C@@H]1[C@H](O)C[C@@H]1[C@@]3(C)CC[C@H](O[C@@H]4O[C@H](CO)[C@@H](O)[C@H](O)[C@H]4O[C@@H]4O[C@H](CO)[C@@H](O)[C@H](O)[C@H]4O)C(C)(C)[C@@H]3CC[C@]12C | u
CCOc1ccc(NC(=O)Cn2nc(SC)c(S(=O)(=O)c3ccccc3)c2N)cc1 | -6%
Cc1cc(C)cc(OCCCn2c(CCNC(=O)C3CCCCC3)nc3ccccc32)c1 | 2%
CC(=O)/C=C/C1(O)C(C)(C)CC(O)CC1(C)O (stereo not drawn) | u
O=[S+]([O-])(NCC#CCSc1nnc(-c2cccc3ccccc23)o1)c1ccc(F)cc1 | -11%
Cc1ccc(/C=N/n2c(-c3ccccc3)csc2=S)cc1 | 9%
CCn1ncc(CN2CCCCCCNC(=O)[C@@H]3CCC[C@@H]32)c1C | -2%
Cn1c(=O)c(=O)n(C)c2cc(N3CCCC3)c(NC(=O)c3ccc(C(C)(C)C)cc3)cc21 | u
Cc1cc(CN(C)C2CCCc3ccccc32)no1 (stereo not drawn) | -13%[39.2 µM]
CN(C)c1ccc(C(CNS(=O)(=O)c2ccc(Cl)cc2)N2CCCC2)cc1 (stereo not drawn) | -35%
COC(=O)c1ccc(NC(=O)CC2C(=O)N(c3ccccc3)C(=O)N2Cc2ccco2)cc1 (stereo not drawn) | -20%
Cc1cc(C)nc(NC(=S)N2CCN(c3ccc4nonc4c3)CC2)c1 | -2%
COC(=O)c1ccc(NC(=O)C(=O)NCCc2sc3nc(-c4ccc(OC)cc4)nn3c2C)cc1 | -23%
O=S(=O)(c1ccc2c(c1)CCC2)N1CCC(Cc2nc(-c3ccncc3)n[nH]2)C1 (stereo not drawn) | i
COc1ccc(-c2cc(-c3ccc4c(c3)NC(=O)CO4)nc3c2COc2ccc(F)cc2-3)cc1 | -18%
O=C(C1CCCN([S+](=O)([O-])c2cccs2)C1)N1CCC(c2nc3ncccc3[nH]2)CC1 (stereo not drawn) | -2%
COC(=O)c1ccc(NC(=O)CSc2cn(CC(=O)N3CCCCC3)c3ccccc23)cc1 | -28%
O=C(Cn1cc(S(=O)(=O)N2CCCC2)c(S(=O)(=O)N2CCCC2)c1)Nc1ccc(F)cc1 | -14%
O=C(Cn1nc2n(c1=O)CCCC2)N1CCN(c2ccc(F)cc2)CC1 | u
CCCc1noc(-c2cccn3c(CNC(=O)c4ccc(OCC)cc4)nnc23)n1 | i
COc1ccc(C2=NS(=O)(=O)N(C)C(C(=O)NCc3ccccc3)=C2)cc1OC | 1%
CCc1cn(C[C@H](NC(=O)COC)C(=O)O)c(=O)[nH]c1=O | -1%[39.2 µM]
COc1ccc2cc1Oc1ccc(cc1)C[C@H]1c3c(cc4c(c3Oc3cc5c(cc3OC)CCN(C)[C@@H]5C2)OCO4)CCN1C | -13%&6%&-10%
COc1cccc(C(=O)N2CCOC[C@H](Oc3ccccc3)C2)c1 | 3%[39.2 µM]
O=C(CCc1cn(Cc2ccc(F)cc2)c2ccccc12)NC1CCCCC1 | -6%
COc1cccc(C2c3c(ncn(-c4ccccc4C(C)(C)C)c3=N)Oc3ccc4ccccc4c32)c1 (stereo not drawn) | -15%
CC[C@@]1(O)C(=O)OCc2c1cc1n(c2=O)Cc2cc3c(CN(C)C)c(O)ccc3nc2-1 | u
Cc1noc2nc(C(=O)O)nc(N3CCCCC3)c12 | -17%
O=c1[nH]c2ccc(S(=O)(=O)Nc3cc(Cl)ccc3O)cc2o1 | 26%
O=C(COCc1cc(-c2ccco2)on1)Nc1ccc(OC(F)(F)F)cc1 | -28%
COC[C@@H]1CN(C(=O)c2cc(OC)cc(OC)c2)C[C@H]1c1ccncc1 | i
CC(=O)N1CCN(c2ccnc(-c3nnc(C)n3C3CCCCC3)c2)CC1 | 4%[39.2 µM]
O=C(CCC#CCSc1nnc(-c2cccc3ccccc23)o1)c1ccccc1 | -16%
COc1ccc(S(=O)(=O)NC[C@H]2Cn3c(-c4ccc(Cl)cc4)cnc3CO2)cc1 | i
Cc1ccc(C(=O)NCc2nnc3ccc(-c4ccccc4)nn23)s1 | 2%
CC(=O)Oc1cccc(O)c1 | 14%
CCc1nn(CC(=O)NCCCc2ccccc2)c(=O)c2cc3ccccc3n12 | -29%

Source: PubChem BioAssay (National Center for Advancing Translational Sciences (NCATS))

The list is partial. The share of hits here may be higher or lower than overall.
